Source: PubChem
Lassa entry inh: blocks Lassa virus binding to or entry into cells; Lassa virus pseudotype entry inhibition, cell reporter; control for the full effect not named in the record; 300,000 compounds, 1.2% hits; AID 540256; Potency, µM (series often up to 37.9 µM), for the others: top-dose activity change, negative = inhibition, hits mostly inhibitors; active means well fitted inhibition curve with a large enough effect; inconclusive means small, poorly fitted or top-dose-only effect, or effect the other way; inactive means flat fitted curve, though single readings scatter; tested in HEK293 cells; further: on the % scale 0 is the no-effect control and ±100 the full control effect; nearly all actives have a fitted effect of over 50% in size; luciferase read-out
Cruzain inh Det: inhibitors of Trypanosoma cruzi cruzain with detergent; 200,000 compounds, 0.43% hits; P25779; Potency, µM, for the others: max response, negative = inhibition, usual class: inhibitors; purified cruzain, Z-FR-AMC fluorescence, 0.01% Triton; AID 1478; active means well fitted curve in the direction sought with a large enough effect; inconclusive means small, poorly fitted or top-dose-only effect, or another doubt; inactive means no such curve, though single readings can be large; an effect the other way counts as inactive or inconclusive;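 further: plate controls were neutral wells for no effect and buffer without enzyme for full effect; nearly all actives have a fitted effect of over 40% in size; top concentration of the series not given in the record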
Target sequence (P25779 123-467 limits assumed): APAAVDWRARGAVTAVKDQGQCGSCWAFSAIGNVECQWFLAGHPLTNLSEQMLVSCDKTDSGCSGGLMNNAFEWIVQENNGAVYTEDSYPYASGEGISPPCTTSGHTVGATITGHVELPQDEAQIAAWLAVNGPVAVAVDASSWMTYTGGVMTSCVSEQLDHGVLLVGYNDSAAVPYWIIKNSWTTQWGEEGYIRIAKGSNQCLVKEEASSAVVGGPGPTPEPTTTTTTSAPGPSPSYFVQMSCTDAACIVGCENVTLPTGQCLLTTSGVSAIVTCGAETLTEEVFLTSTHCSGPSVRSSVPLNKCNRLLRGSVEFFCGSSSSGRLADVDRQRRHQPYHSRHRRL
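Detergent-containing arm of a paired screen for aggregation-based inhibition: 0.01% Triton X-100 present. Cruzain at 1.5 nM cleaved 2 uM Z-FR-AMC at pH 5.5 with 5 mM DTT; AMC fluorescence gain over 60 s measured activity.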
Cruzain inh noDet: inhibitors of Trypanosoma cruzi cruzain without detergent. purified cruzain, Z-FR-AMC fluorescence, no detergent. Potency, µM, for inactives: max response, negative = inhibition, hits mostly inhibitors. 200,000 compounds, 2.3% hits; active means well fitted curve in the direction sought with a large enough effect; inconclusive means small, poorly fitted or top-dose-only effect, or another doubt; inactive means no such curve, though single readings can be large; an effect the other way counts as inactive or inconclusive;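 further: plate controls were enzyme without inhibitor for no effect and buffer without enzyme for full effect; nearly all actives have a fitted effect of over 40% in size; top concentration of the series not given in the record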
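Detergent-free condition (0.00005% Triton X-100) in acetate buffer pH 5.5 with DTT. 1.5 nM enzyme and compound were pre-mixed 15 min, then 2 uM Z-FR-AMC substrate added; reaction progress from fluorescence change between first and third reads (60 s).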
SARS PLpro yeast: blocks SARS-CoV papain-like protease in a yeast assay; Potency, µM (highest dose often 32.9 µM), for inactives: top-dose activity, positive = growth rescue; S. cerevisiae expressing SARS-CoV PLpro, growth rescue; control for the full effect not named in the record; 330,000 compounds, 0.19% hits; AID 485353; further: 0% is about no effect; nearly all actives have a fitted effect of over 55% in size; growth read by luminescence after 48 h
RE007 growth inh: less growth of the S. pombe RE007 Vpr strain. S. pombe RE007 Vpr strain, BacTiter-Glo ATP luminescence, 24 h; control for the full effect not named in the record. Potency, µM (doses to about 92.2 µM), inactives show at the highest dose activity change, negative = less growth. 360,000 compounds, 0.21% hits; active = well fitted falling curve with a large enough effect; inconclusive = small, poorly fitted or top-dose-only effect; inactive = no such curve, though single readings can be large or run the other way;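 further: on the % scale 0 is the no-effect control and ±100 the full control effect; nearly all actives have a fitted effect of over 50% in size; the assay follows cell death caused by Vpr and the record does not say whether a fall means rescue or toxicity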
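Fission yeast RE007 carrying one integrated HIV-1 vpr copy, seeded at OD 0.01 in PMG+AL medium with 23 nL pinned compound. Grown 24 h at 30 degrees; viability read by BacTiter-Glo luminescence after 5 min.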
NS1 inh: blocks influenza NS1 protein function. S. cerevisiae slowed by influenza A NS1, growth recovery by OD600. Potency, µM (titrated, usually from 46.1 µM), for inactives: at the highest dose activity, positive = more growth. 270,000 compounds, 0.4% hits; further: actives are rising curves; nearly all actives have a fitted effect of over 50% in size
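A cell-based growth assay was used: compounds that relieve NS1-induced slow growth of budding yeast raise OD600. Assay medium was yeast nitrogen base with ammonium sulphate and -URA supplement, pH 6.0, with 2% galactose.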
MARV entry inh: Marburg virus entry inhibition. Marburg virus pseudotyped entry inhibition, cell reporter; control for the full effect not named in the record; about a third of the inactives were read at about 46 µM. Potency, µM (series often up to 37.8 µM), for inactives: top-dose activity change, negative = inhibition, actives largely listed as inhibitors. 300,000 compounds, 1.8% hits; active = well fitted inhibition curve with a large enough effect; inconclusive = small, poorly fitted or top-dose-only effect, or effect the other way; inactive = flat fitted curve, though single readings scatter; tested in HEK293 cells; about a fifth of its hits are not listed in these tables; further: on the % scale 0 is the no-effect control and ±100 the full control effect; luciferase read-out
2A StopGo: FMDV 2A StopGo reporter, luciferase signal; 410,000 compounds, 1.2% hits; Potency, µM (highest dose often 57.9 µM), for the others: at the highest dose signal change, negative = less light; human cells with a luciferase reporter of 2A StopGo recoding; control for the full effect not named in the record; active = well fitted falling curve with a large enough effect; inconclusive = small, poorly fitted or top-dose-only effect; inactive = no such curve, though single readings can be large or run the other way; tested in HEK293T cells; further: on the % scale 0 is the no-effect control and ±100 the full control effect; nearly all actives have a fitted effect of over 45% in size; luciferase light after 4 h
The depositor's hits bear a star; ? = inconclusive; · = no result given; & = joins results of further samples; [ ] = dose if it differs, or a comment. Unless noted, the call rests on the fitted dose curve; in most records, active means well fitted rising curve with a large enough effect; inconclusive means small, poorly fitted or top-dose-only effect; inactive means no such curve, though single readings can be large or run the other way. Potency means the concentration at half of the fitted maximal effect.

SMILES	Lassa entry inh	Cruzain inh Det	Cruzain inh noDet	SARS PLpro yeast	RE007 growth inh	NS1 inh	MARV entry inh	2A StopGo
O=C(Nc1ccc(F)cc1)/C(=C1/CCCCCN1)[N+](=O)[O-]	21%[46.1 µM]	·	·	-1%	4%	1%	15%[46.1 µM]	12%
Cc1nn(-c2ccc(F)cc2)c(C)c1NS(=O)(=O)c1ccc2ccccc2c1	?	-8.2%	-5%	-6%	-1%	19%	-26%	·
Cc1ccccc1CCNCc1c(C(=O)O)c(C)n(Cc2c(F)cccc2Cl)c1C	3%[46.1 µM]	-1.4%	0%	·	·	·	10%[46.1 µM]	-15%
COc1ccccc1CNS(=O)(=O)c1c(C(=O)N2CCCCCC2)c(C)n(C)c1C	-19%[46.1 µM]	·	·	10%	-5%	4%	?	40%[activator]
CCCC(=O)Nc1sc2c(c1C(=O)OC)C(C(=O)OC)CC2 (stereo not given)	-15%	-2.9%	5%	-15%	-1%	-9%	?	-5%
Cc1c(C(=O)Nc2cc(F)cc(F)c2)cnn1-c1ccccc1	·	·	·	1%	6%	-32%	·	44%[activator]
O=C(O)C1CCCN1c1ncnc2ccccc12 (stereo not given)	-8%	-5.1%	-2%	9%	4%	?	10%	·
Cc1cc[n+](C(C)C(=O)c2ccc(Cl)cc2)cc1 (stereo not given)	6%	·	·	-6%	-2%	8%	?	-20%
CC(C)NC(=O)c1cc2cc(Br)ccc2oc1=O	2%	2.1%	-22%	5%	-1%	6%	-2%	56%[activator]
CC(C)C[C@H](NC(=O)N1CCn2c1nc1ccccc12)C(=O)NCc1ccc2c(c1)OCO2	·	·	·	-3%	5%	-17%	?	2%
O=C(CSc1nnc(Cn2nnc(-c3ccccc3)n2)n1-c1ccccc1)Nc1ccc(F)cc1	-15%	0.7%	5%	5%	8%[3.69 µM]	-15%	1%&3%	3%
Nc1ccc(N2CCN(c3ccc(F)cc3)CC2)cc1	?	·	·	-1%	-16%	9%	3%[46.1 µM]	-4%
C=CCOc1ccc(C(=O)/C=C2/C(=O)Nc3ccccc32)cc1	-19%[46.1 µM]	·	·	-6%	-6%	-63%	?	16%
Cc1cc(=O)n(CC(=O)N2CCN(c3ccccc3F)CC2)c2c1c(C)nn2C	-24%[46.1 µM]	-5.2%	15%	·	·	·	·	?
Cc1ccc(S(=O)(=O)NCCSc2nnnn2-c2ccccc2)cc1	-17%[46.1 µM]	-3.0%&-3.3%	-3%&2%	6%	-7%	-14%	-14%[46.1 µM]	15%&12%
S=c1[nH]nc(-c2ccccc2)c2ccccc12	?	·	·	0%	2%	-3%	-26%	-15%
CCc1nnc(SCC(=O)Nc2ccc3c(c2)OCO3)o1	-19%	3.6%	-3%	-10%	-4%	5%	1%	7%
Cc1ccc(C(C(=O)Nc2ccc3c(c2)OCO3)N(C)C(=O)/C=C\c2ccc3c(c2)OCO3)cc1 (stereo not given)	19%	-6.6%	?	2%	2%	?	?	23%
CN(C(=S)NC(=O)Cc1ccccc1)c1ccccc1	-36%	·	·	0%	?	2%	8%[46.1 µM]	44%[activator]
O=C(CSc1nc(-c2ccccc2)c2ccccc2n1)Nc1ccc(F)cc1	0%[46.1 µM]	1.7%	13%	·	·	·	25%[46.1 µM]	-20%
Cc1ccnc(Nc2nc(-c3ccc(O)cc3)cs2)c1	?	·	·	-22%	-27%	-30%	-10%	-17%
CCOC(=O)c1c(NC(C)=O)sc2c1CCN(Cc1ccccc1)C2	·	·	·	-2%	-8%	-5%	·	0%
c1csc(-c2nc(-c3ccncc3)no2)c1	30%	-1.6%	3%	-1%	-18%	-10%	15%	37%[activator]
Cc1cc(NC(=O)c2cc(-c3ccc(Cl)cc3)on2)n(-c2ccccc2)n1	-13%[46.1 µM]	-2.8%	8%	·	·	·	1%[46.1 µM]	3%
O=C(CSC(=S)N1CCCC1)N1CCN(S(=O)(=O)c2cccc([N+](=O)[O-])c2)CC1	0%	·	·	6%	3%	12%	11%	-1%
(more compounds)
SMILES	Lassa entry inh	Cruzain inh Det	Cruzain inh noDet	SARS PLpro yeast	RE007 growth inh	NS1 inh	MARV entry inh	2A StopGo
CC1CCN(CC(=O)Nc2ccccc2Sc2ccccc2)CC1	-2%	-4.9%	10%	-10%	-17%	-1%	-42%	-2%
O=c1[nH]c(=O)n(CCc2ccccc2)c(O)c1/C=N/N1CCOCC1	·	·	·	-3%	-4%	-1%	·	-12%
O=C(CN1CCN(CCO)CC1)Nc1ccccc1	13%	1.7%	10%	-11%	4%	6%	-2%[46.1 µM]	2%
CCn1cc(C(=O)N/N=C(/C)c2ccc(F)cc2)c(=O)c2cc(F)c(N3CCCC3)cc21	·	7.5%	1%	0%	·	-6%	0%	·
CCOc1cccc(=O)c2c(C)n(Cc3ccccc3)c(C)c12	·	·	·	0%	-5%	15%	·	-2%
C=CCNC(=O)C(C)N1c2cccc3cccc(c23)S1(=O)=O (stereo not given)	10%	·	·	18%	-1%	7%	0%	4%
CN(C)c1ccc(NC(=O)c2ccc(N3CCOCC3)nc2)cc1	·	·	·	2%	-5%	0%	·	8%
COP(=O)(OC)C(Nc1cc(Cl)cc(Cl)c1)c1cccc(O)c1 (stereo not given)	·	·	·	0%	2%	-7%	·	0%
Cc1ccsc1C(=O)C1CCCN(Cc2cnn(C(C)C)c2)C1 (stereo not given)	·	·	·	-1%	-10%	-2%	·	-7%
C/C(N)=C(/C#N)C(=O)COC(=O)c1oc2ccccc2c1COC(C)C	-18%	·	·	1%	15%	·	?	-4%
COc1ccc(Cn2c(C)nc3oc4cc(OC)ccc4c(=O)c3c2=O)cc1	?	-4.2%	-7%	4%	-4%	2%	10%	0%
COc1cc(C=Nc2ccccc2C(=O)Nc2ccccc2)cc(OC)c1OC	2%	-6.5%	10%	13%	3%	-12%	4%	0%
O=C(CSCCO)Nc1ccc(C23CC4CC(CC(C4)C2)C3)cc1	?	-1.5%	?	-13%	6%	11%	-4%	21%
COc1ccc2c(c1)-c1nc(NC(=O)c3ccccc3F)sc1CC2	2%[46.1 µM]	-7.8%	7%	·	·	·	-3%[46.1 µM]	-11%
COc1cc(C(CC(=O)O)n2cnnn2)ccc1OC(C)C (stereo not given)	26%	·	·	-3%	17%	·	23%[46.1 µM]	2%
CCc1cccc(NC(=O)c2cccc(S(=O)(=O)N3CCN(C)CC3)c2)c1	7%	·	·	-1%	6%	-1%	12%[46.1 µM]	25%
COc1ccc(-c2cc(=O)c3c(O)c(OC)c(O)cc3o2)cc1	·	·	·	-4%	1%	-45%	·	-23%
CC(=O)c1sc(NC(=O)CN2C(=O)NC3(CCCC3)C2=O)nc1-c1ccccc1	?	·	·	0%	1%	·	4%	-25%
COc1ccc(C(=O)CNc2ccc3ccccc3c2)cc1	16%	·	·	-1%	-4%	6%	1%[46.1 µM]	39%[activator]
COc1ccc(N2C(=O)CC(N3CCOCC3)C2=O)cc1 (stereo not given)	-12%	3.5%	-3%	-6%	?	1%	-40%	-11%
C/C(=N\NS(=O)(=O)c1ccccc1)c1ccccc1	6%	·	·	0%	4%	-7%	4%[46.1 µM]	48%[activator]
CC(C)(C)[C@@H]1CCC(=O)N(CC[C@H](Sc2ccccc2)c2ccccc2)CC1	·	·	·	-8%	11%	-89%	·	?
COc1ccc(C2C(C#N)=C(/N=C/N3CCN(C)CC3)OC3=C2C(=O)CC(C)(C)C3)cc1 (stereo not given)	13%	-2.4%	5%	2%	-8%	-22%	6%	-9%
CCCCNC(=O)CSc1nc2ccccc2nc1Cc1ccccc1	10%[46.1 µM]	0.3%	4%	·	·	·	·	5%
Cc1cccc(Cn2c(=O)n(Cc3ccccc3)c(=O)c3oc4ccccc4c32)c1	6%[46.1 µM]	-0.9%	-2%	·	·	·	·	-10%
(next part)
SMILES	Lassa entry inh	Cruzain inh Det	Cruzain inh noDet	SARS PLpro yeast	RE007 growth inh	NS1 inh	MARV entry inh	2A StopGo
O=C(COC(=O)Cc1ccccc1[N+](=O)[O-])NC1CCCC1	12%	·	·	5%	-6%	·	-8%[46.1 µM]	18%
CC(=O)N(C)c1ccc(NC(=O)COc2ccc(Br)cc2C)cc1	?	-4.8%	28%	-6%	8%	-14%	10%	?
O=C(O)COc1ccccc1/C=N/NC(=O)c1ccc2c(c1)OCCO2	·	·	·	-6%	14%	-5%	·	-9%
CC(C)NC(=O)c1ccccc1NC(=O)/C=C/c1cccc([N+](=O)[O-])c1	1%	-2.7%	-18%	21%	-1%	1%	14%	0%
O=C(c1cc2ccccc2o1)N1CCN(c2ccccn2)CC1	2%[46.1 µM]	·	·	0%	-21%	5%	25%[46.1 µM]	-8%
O=C(CC1(O)C(=O)N(CCc2ccccc2)c2ccccc21)c1ccccn1 (stereo not given)	-5%	·	·	-3%	-8%	·	-31%[46.1 µM]	11%
COc1ccc(-c2noc(N3CCC(C(=O)N(C)c4ccccc4)CC3)n2)cc1	·	·	·	8%	3%	-54%	·	?
CCc1ccc(C(=O)c2cn(CC(=O)NC3CCCCC3)c3nc(C)ccc3c2=O)cc1	2%[46.1 µM]	1.3%	6%	·	·	·	·	-6%
O=C(NC1CCCCC1)C(c1cccs1)N(C(=O)C(F)(F)F)c1ccccc1 (stereo not given)	?	-3.1%	-5%	1%	-1%	12%	-12%	·
CC12CCC(C(=O)NNc3ccc([N+](=O)[O-])cc3)(OC1=O)C2(C)C (stereo not given)	0%[46.1 µM]	·	·	6%	1%	-61%	0%[46.1 µM]	-7%
Cc1nc2sc(C(c3ccc(Br)cc3)N3CC(C)OC(C)C3)c(O)n2n1 (stereo not given)	5%	-0.1%	?	2%	-7%	-19%	-22%[46.1 µM]	0%
CC(C(=O)NCc1ccco1)n1ccc2cc(S(=O)(=O)N3CCCC3)ccc21 (stereo not given)	-16%[46.1 µM]	·	·	-4%	-1%	-2%	11%[46.1 µM]	-15%
CCCCc1nc2cc(C(=O)N3CCCCC3CC(=O)OCC)ccc2o1 (stereo not given)	6%	·	·	0%	2%	9%	10%	50%[activator]
NS(=O)(=O)c1ccc(CNC(=S)NC2CCCC2)cc1	10%	·	·	0%	-4%	2%	?	9%
